# High-throughput results deposited in PubChem by National Center for Advancing Translational Sciences (NCATS).
# RECQ1 inh = qHTS Assay for Inhibitors of RecQ-Like Dna Helicase 1 (RECQ1); Potency, µM (series often up to 57.3 µM), inactives show at the highest dose activity, negative = inhibition, most hits filed as inhibitors; ATP-dependent DNA helicase Q1 (Homo sapiens), P46063; RECQ1 DNA unwinding, red fluorescence kinetic read; actives 0.54% (n = 240,000);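 also: plate controls were vehicle for no effect and no enzyme for full effect; nearly all actives have a fitted effect of over 30% in size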
#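 50 nM RECQ1T1 preincubated 15 min with compound in Tris pH 8.0 buffer with MgCl2, DTT, Tween-20 and 2.5 ug/ml poly(dI-dC); started with 200 nM TAMRA/BHQ-2 forked duplex and 2 mM ATP. Unwinding read as fluorescence (525/598 nm), two reads 2 h apart.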
# GAA inhib = qHTS Assay for Inhibitors of Human alpha-Glucosidase as a Potential Chaperone Treatment of Pompe Disease; AID 1466, 2008; actives 0.005% (n = 200,000); purified human GAA, 4-MU-alpha-glucoside fluorescence; Potency, µM (series often up to 76.9 µM), without a hit: at the highest dose activity change, negative = inhibition, actives largely listed as inhibitors;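 also: plate controls were uninhibited enzyme wells for no effect and no-enzyme background for full effect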
#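 Read-out is 4-methylumbelliferone fluorescence (Ex 365/Em 440 nm) after NaOH/glycine stop at pH 10. Enzyme 4 nM, substrate 400 uM, pH 5.0 citrate buffer, 20 min room temperature; AC50 from Hill-equation concentration-response.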
# GAA spleen mod = qHTS Assay for Inhibitors and Activators of Human alpha-Glucosidase From Spleen Homogenate; human spleen homogenate, 4-MU-alpha-glucoside fluorescence; Lysosomal alpha-glucosidase (Homo sapiens), P10253; Potency, µM (titrated, usually from 79.9 µM), without a hit: at the top dose activity change, negative = inhibition, usual class: inhibitors; actives 0.006% (n = 240,000);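 also: 0% = enzyme with vehicle and -100% = no enzyme basal signal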
#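 Human spleen homogenate (1 ug) with 4-methylumbelliferyl-alpha-D-glucopyranoside (1 mM final) in 50 mM citrate/phosphate pH 5.0, 0.01% Tween-20; 40 min at 37 C. Stopped at pH 10; 4-MU fluorescence Ex 365/Em 440 nm; AC50 by Hill fit.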
# RGS12 GoLoco inh = qHTS Assay for Inhibitors of RGS12 GoLoco Motif Activity (Red Fluorophore). Guanine nucleotide-binding protein G(i) subunit alpha-1 (Homo sapiens), P63096. Gai1:RGS12 GoLoco peptide FP, rhodamine, 10 min. Potency, µM (highest dose often 61.6 µM), without a hit: at the highest dose activity, negative = inhibition, hits mostly inhibitors. actives 0.44% (n = 230,000); active = well fitted inhibition curve with a large enough effect, not every such curve was filed as active; inactive = no such curve, though single readings can be large or run the other way; also: nearly all actives have a fitted effect of over 30% in size; many of its hits are not listed in these tables
# Target sequence (P63096 whole entry, looked up): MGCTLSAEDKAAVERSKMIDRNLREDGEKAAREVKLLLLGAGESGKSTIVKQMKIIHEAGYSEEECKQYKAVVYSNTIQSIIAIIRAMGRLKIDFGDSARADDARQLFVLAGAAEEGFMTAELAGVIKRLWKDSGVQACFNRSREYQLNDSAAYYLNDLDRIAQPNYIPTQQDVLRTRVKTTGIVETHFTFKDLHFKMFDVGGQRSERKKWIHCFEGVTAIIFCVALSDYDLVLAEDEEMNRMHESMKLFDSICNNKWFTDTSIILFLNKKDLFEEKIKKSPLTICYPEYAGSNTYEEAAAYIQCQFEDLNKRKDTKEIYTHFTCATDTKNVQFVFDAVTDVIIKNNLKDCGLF
# GAA glycogen mod = qHTS Assay for Inhibitors and Activators of Human alpha-Glucosidase Cleavage of Glycogen; actives 0.38% (n = 300,000); Lysosomal alpha-glucosidase (Homo sapiens), P10253; recombinant GAA, glycogen substrate, Amplex Red glucose oxidase fluorescence; Potency, µM (titrated, usually from 76.4 µM), inactives show at the highest dose activity change, negative = inhibition, usual class: inhibitors;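 also: 0% = full enzyme reaction and -100% = no-enzyme basal signal; the screen sought inhibitors and activators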
#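 Recombinant human enzyme (4 nM); glycogen substrate; 37 C, 40 min, pH 5.0. Readout: coupled glucose oxidase/Amplex Red fluorescence.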
# * hit, by the source's call; i = inactive; ? = inconclusive; . = not tested or not shown; & = joins results of further samples; [ ] = another dose, or the depositor's remark. Unless noted, calls follow the shape of the dose curve; as a rule, active = well fitted curve in the direction sought with a large enough effect; inconclusive = small, poorly fitted or top-dose-only effect, or another doubt; inactive = no such curve, though single readings can be large; an effect the other way counts as inactive or inconclusive. Unless noted, % is scaled to controls: 0 for no effect and ±100 for the full control effect; potency is read from the fitted curve at half-maximal effect. Some of the compounds tested (hit frequency here may not be typical).
# A first look, three compounds:
1	Clc1ccc(COC(Cn2ccnc2)c2ccc(Cl)cc2Cl)c(Cl)c1 (stereo not given)
2	CCCCCOc1ccc(C)cc1CN(CCCl)CCCl
3	C[C@@H]1O[C@@H](O[C@H]2C[C@@H](O)[C@@]3(CO)[C@H]4[C@H](O)C[C@]5(C)[C@@H](C6=CC(=O)OC6)CC[C@]5(O)[C@H]4CC[C@@]3(O)C2)[C@@H](O)[C@H](O)[C@H]1O
Screen / compound no. | 1 | 2 | 3
RECQ1 inh | ? | i | .
GAA inhib | ? | ? | .
GAA spleen mod | -5.9% | -3.5% | .
RGS12 GoLoco inh | -0.9% | 8.8% | 3.9%[14.2 µM]
GAA glycogen mod | -7.8% | 8.4% | .

# Results, repeating the preview:
1	Clc1ccc(COC(Cn2ccnc2)c2ccc(Cl)cc2Cl)c(Cl)c1 (stereo not given)
2	CCCCCOc1ccc(C)cc1CN(CCCl)CCCl
3	C[C@@H]1O[C@@H](O[C@H]2C[C@@H](O)[C@@]3(CO)[C@H]4[C@H](O)C[C@]5(C)[C@@H](C6=CC(=O)OC6)CC[C@]5(O)[C@H]4CC[C@@]3(O)C2)[C@@H](O)[C@H](O)[C@H]1O
4	O=C(NC(=O)c1c(F)cccc1F)Nc1cc(Cl)c(F)c(Cl)c1F
5	S=C=NCc1ccccc1
6	C[C@H]1O[C@H]1P(=O)(O)O
Screen / compound no. | 1 | 2 | 3 | 4 | 5 | 6
RECQ1 inh | ? | i | . | i | -6.9% | -11.2%&22.6%
GAA inhib | ? | ? | . | -6.9%[15.4 µM] | . | 1.2%&-12.7%[15.4 µM]
GAA spleen mod | -5.9% | -3.5% | . | -1.3% | 1.5% | -2.9%&-6.5%
RGS12 GoLoco inh | -0.9% | 8.8% | 3.9%[14.2 µM] | 7.1% | -17.4% | -6.7%&10.2%
GAA glycogen mod | -7.8% | 8.4% | . | 4.1% | . | 1.7%&2.9%

7	C[C@H]1C[C@H](C)C(=O)[C@@H]([C@H](O)CC2CC(=O)NC(=O)C2)C1
8	CC(C)(C)c1ccccc1O
9	NNCc1ccccc1
10	CN(C)C1C(=O)C(C(N)=O)=C(O)[C@@]2(O)C(=O)C3=C(O)c4c(O)cccc4[C@@](C)(O)C3C[C@@H]12 (stereo not given in full)
11	CN[C@H](C)[C@H](O)c1ccccc1
12	C[C@@H]1O[C@@H](O[C@H]2C[C@@H](O)[C@]3(CO)[C@@H]4C(CC[C@]3(O)C2)[C@@]2(O)CC[C@H](C3=CC(=O)OC3)[C@@]2(C)C[C@H]4O)[C@H](O)[C@H](O)[C@H]1O (stereo not given in full)
Screen / compound no. | 7 | 8 | 9 | 10 | 11 | 12
RECQ1 inh | -4.3% | -1.7% | i | ? | -1.0% | -1.8%
GAA inhib | . | . | . | . | -5.6%[15.4 µM] | .
GAA spleen mod | 7.8% | 6.6% | 3.2% | 1.7% | 4.8% | 5.5%&0.2%&5.1%
RGS12 GoLoco inh | -1.9% | -3.2% | 3.1% | 0.7% | 11.4% | 7.9%&4.1%&8.6%
GAA glycogen mod | . | . | . | . | 4.2% | .

13	CN(C)[C@@H]1C(=O)C(C(N)=O)=C(O)[C@@]2(O)C(=O)C3=C(O)c4c(O)cccc4[C@@](C)(O)C3CC12 (stereo not given in full)
14	COc1ccc(C(=O)N2CCCC2=O)cc1
15	CN1/C(=C\C=C\C2=[N+](C)c3ccc4ccccc4c3C2(C)C)C(C)(C)c2ccccc21
16	COc1ccc2c(c1OC)C(=O)O[C@@H]2C1c2cc3c(cc2CCN1C)OCO3 (stereo not given in full)
17	Nc1ccc(Oc2ccc(N)cc2)cc1
18	COC[C@H]1OC(=O)c2coc3c2[C@@]1(C)C1=C(C3=O)[C@@H]2CCC(=O)[C@@]2(C)C[C@H]1OC(C)=O
Screen / compound no. | 13 | 14 | 15 | 16 | 17 | 18
RECQ1 inh | -0.3% | ? | 28.2µM* | 0.6% | 21.8% | 35.5µM*
GAA inhib | . | 7.6%[15.4 µM] | 3.9% | . | . | .
GAA spleen mod | 1.5% | 3.5%&7.9%&-8.5%&-0.8% | -10.3% | -2.5% | -2.8% | 6.3%
RGS12 GoLoco inh | -6.3% | -9.9%&6.2%&9.4%&3.8%&1.1% | i | 0.9% | -12.7% | -50.7%
GAA glycogen mod | . | 7.6% | 4.5% | . | . | .

19	C[C@@H]1C[C@@H]([C@H](O)CC2CC(=O)NC(=O)C2)C(=O)[C@@H](C)C1
20	C[C@H]1O[C@@H](O[C@H]2[C@@H](O)C[C@H](O[C@H]3[C@@H](O)C[C@H](O[C@H]4CC[C@@]5(C)[C@H](CC[C@@H]6[C@@H]5CC[C@]5(C)[C@@H](C7=CC(=O)OC7)CC[C@]65O)C4)O[C@@H]3C)O[C@@H]2C)C[C@H](O)[C@@H]1O
21	C[N+]1([O-])[C@@H]2CC[C@H]1CC(OC(=O)[C@@H](CO)c1ccccc1)C2 (stereo not given in full)
22	NC[C@@H]1O[C@H](O[C@H]2[C@@H](O)[C@H](O[C@@H]3[C@@H](O)[C@H](N)C[C@H](N)[C@H]3O[C@H]3O[C@H](CO)[C@@H](O)[C@H](O)[C@H]3N)O[C@@H]2CO)[C@H](N)[C@@H](O)[C@@H]1O
23	CCc1cccc(C)c1N(C(=O)CCl)C(C)COC (stereo not given)
24	O=S1OCC2C(CO1)C1(Cl)C(Cl)=C(Cl)C2(Cl)C1(Cl)Cl (stereo not given)
Screen / compound no. | 19 | 20 | 21 | 22 | 23 | 24
RECQ1 inh | -3.0%&-4.5%&3.6% | -6.2% | -6.5%[25.9 µM] | -6.0% | -14.8% | -6.7%&-10.5%
GAA inhib | . | 2.1%[15.4 µM] | . | -9.7%[15.4 µM] | . | .
GAA spleen mod | 3.4%&0.1%&4.2% | 0.6% | 1.6%[29.1 µM] | 7.7% | 4.9% | -11.6%&-5.5%
RGS12 GoLoco inh | 6.0%&-2.6%&3.9% | 5.9% | 2.2%[21.6 µM] | 14.0% | 3.7% | 7.5%&-5.1%
GAA glycogen mod | . | 7.2% | . | 3.4% | . | .

25	Cc1ccc2cc3c(ccc4ccccc43)c3c2c1CC3
26	CN(C)C1C(=O)C(C(N)=O)=C(O)C2(O)C(=O)C3=C(O)c4c(O)cccc4C(C)(O)C3CC12 (stereo not given)
27	C[C@H]1O[C@@H](O[C@H]2[C@@H](O)C[C@H](O[C@H]3[C@@H](O)C[C@H](O[C@H]4CC[C@]5(C)C6CC[C@]7(C)[C@@H](C8=CC(=O)OC8)CC[C@]7(O)C6CC[C@@H]5C4)O[C@@H]3C)O[C@@H]2C)C[C@H](O)[C@@H]1O (stereo not given in full)
28	CN1CC[C@@]23CCCCC2C1Cc1ccc(O)cc13 (stereo not given in full)
29	CC(N)[C@H](O)c1ccc(O)c(O)c1 (stereo not given in full)
Screen / compound no. | 25 | 26 | 27 | 28 | 29
RECQ1 inh | i | . | -1.7% | -13.6% | 6.31µM*
GAA inhib | . | . | . | . | .
GAA spleen mod | 3.0% | . | -6.5% | 5.0% | 1.7%
RGS12 GoLoco inh | -5.1% | . | 6.1% | 6.9% | -8.7%
GAA glycogen mod | . | -17.9%[76.3 µM] | . | . | .

# Laid out differently: results already given.
item	SMILES	RECQ1 inh	GAA inhib	GAA spleen mod	RGS12 GoLoco inh	GAA glycogen mod
25	Cc1ccc2cc3c(ccc4ccccc43)c3c2c1CC3	i	.	3.0%	-5.1%	.
26	CN(C)C1C(=O)C(C(N)=O)=C(O)C2(O)C(=O)C3=C(O)c4c(O)cccc4C(C)(O)C3CC12 (stereo not given)	.	.	.	.	-17.9%[76.3 µM]
27	C[C@H]1O[C@@H](O[C@H]2[C@@H](O)C[C@H](O[C@H]3[C@@H](O)C[C@H](O[C@H]4CC[C@]5(C)C6CC[C@]7(C)[C@@H](C8=CC(=O)OC8)CC[C@]7(O)C6CC[C@@H]5C4)O[C@@H]3C)O[C@@H]2C)C[C@H](O)[C@@H]1O (stereo not given in full)	-1.7%	.	-6.5%	6.1%	.
28	CN1CC[C@@]23CCCCC2C1Cc1ccc(O)cc13 (stereo not given in full)	-13.6%	.	5.0%	6.9%	.
29	CC(N)[C@H](O)c1ccc(O)c(O)c1 (stereo not given in full)	6.31µM*	.	1.7%	-8.7%	.
